Assay outcomes (PubChem)
Mtb growth: Mycobacterium tuberculosis H37Rv growth inhibition, cell based, confirmatory dose response (AID 1949) | most inactive calls were filed without a number and no value below 0 was filed | one-dose inhibition, % at 10 µg/mL; IC50 in µg/mL for titrated hits | hit rate 1.6% among 100,000;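 active means confirmed in a dose series; inconclusive means about 50% or more but not retested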;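 further: bacteria grown 7 days with compound before Alamar blue readout; 0% = untreated bacteria and 100% = reference antibiotic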
Numbers without * were called inactive; i = inactive; ? = inconclusive.

| molecule | Mtb growth |
| --- | --- |
| COc1ccc(-c2csc(NC(=O)Cc3ccccc3)n2)cc1Br | i |
| CCOc1ccccc1N(CC(=O)N1CCN(c2ccccc2OC)CC1)S(C)(=O)=O | i |
| COc1ccc(NC(=O)Cn2cnc3sc(-c4ccccc4)cc3c2=O)cc1 | i |
| Cc1ccccc1-c1nnn(CC(=O)NC2CCCC2)n1 | i |
| Cc1ccc2oc(C(=O)Nc3nnc(CC(C)C)s3)c(C)c2c1 | i |
| CSc1cccc(NS(=O)(=O)c2ccc([N+](=O)[O-])cc2)c1 | 5% |
| CCOC(=O)c1c(-c2ccc(OC)cc2)csc1NC(C)=O | i |
| Cc1ccc2nc(NC(=O)CC34CC5CC(CC(C5)C3)C4)sc2c1 | i |
| COc1nc(NCCN2CCOCC2)nc(Nc2ccccc2)n1 | i |
| CN(C(=O)c1ccco1)c1ccccc1C(=O)O | i |
| CCOC(=O)c1c(NC(=O)c2cc(Br)ccc2Cl)sc2c1CCC2 | i |
| CN(C)C(=O)c1cn(-c2ccccc2)nc1-c1ccc(-c2ccccc2)cc1 | 37% |
| Cc1cccc(C)c1NC(=S)NC(=O)C1CCCCC1 | 4% |
| O=C(Nc1ccc2c(c1)ncn2-c1ccccc1)c1ccc(Cl)cc1 | i |
| Cc1cc(C)cc(C(=O)NCCCc2ccccc2)c1 | i |

Next part:
| molecule | Mtb growth |
| --- | --- |
| N/C(Cc1ccc(Cl)cc1)=N\OC(=O)c1ccccc1 | 5% |
| OCCCNCc1ccc(-c2ccccc2)cc1 | 2% |
| Oc1ccccc1C(=S)N1CCCCCC1 | i |
| CC(C)(C)C(=O)NC(=S)Nc1cccc(-c2nc3cc(Cl)cc(Cl)c3o2)c1 | 1% |
| CCc1c(C(=O)Nc2cc(C(F)(F)F)ccc2F)csc1C | 7% |
| Cc1cc(Cl)ccc1OCC(=O)Nc1ccc(N2CCN(S(C)(=O)=O)CC2)cc1 | 0% |
| CCOc1ccccc1NC(=O)Nc1ncn(Cc2cccc(C)c2)n1 | i |
| CC(=O)Oc1ccc2cc(-c3nc4ccccc4n3C)c(=O)oc2c1 | i |
| CCOC(=O)c1ccc(NC(=O)C2CC(=O)N3CCCN=C3S2)cc1 (stereo unspecified) | i |
| Fc1ccc(C2CC(c3ccccc3F)n3ncnc3N2)cc1 (stereo unspecified) | i |
| CCc1c(C(=O)NNC(=O)Nc2ccc3c(c2)OCO3)csc1C | i |
| CCCCN(C)CCC(=O)Nc1ccc(OC)cc1OC | i |
| CC1=C(C(=O)Nc2ccc(C)cc2C)C(c2cccnc2)n2ncnc2N1 (stereo unspecified) | i |
| COC(=O)Cc1c(C)c2ccc(OCC(=O)c3ccc(Br)cc3)c(C)c2oc1=O | i |
| O=C(CSc1nc2ccc([N+](=O)[O-])cc2[nH]1)Nc1ccc(O)c(C(=O)O)c1 | 4% |

Remaining list, next part:
| molecule | Mtb growth |
| --- | --- |
| Nc1nc2c(c(NC(=O)Nc3ccccc3)n1)CCCC2 | i |
| Cc1c(F)cccc1NS(=O)(=O)N(C)C | 5% |
| Cc1ccc(N2C(=O)CC(=O)N(C)C2=S)cc1 | i |
| O=C(COc1ccc(S(=O)(=O)NCc2ccccc2)cc1Cl)Nc1ccc2c(c1)OCCO2 | 2% |
| Cc1c(-c2nc3ccccc3c(=O)o2)cccc1[N+](=O)[O-] | 21% |
| CCN(CC)S(=O)(=O)c1cc(C)c(C)cc1C | i |
| O=C(Nc1nnc(SCc2cccc(F)c2)s1)c1ccccc1Cl | 2% |
| N/C(=N\OC(=O)c1ccc(-c2ccccc2)cc1)c1ccccn1 | i |
| CCCN1C(=O)C(O)(C2CC(=O)CC(C)(C)O2)c2ccccc21 (stereo unspecified) | i |
| O=C(O)CN1C(=O)C2C3C=CC(C3)C2C1=O (stereo unspecified) | i |
| COC(=O)c1ccc(NC(=O)CSc2nc(C)cc(=O)[nH]2)cc1 | i |
| Cc1cc(C(=O)NC(Cc2c[nH]c3ccccc23)C(=O)O)c(C)o1 (stereo unspecified) | i |
| CCCCn1c2ccccc2c2nnc(SCC(=O)Nc3ccc(NC(C)=O)cc3)nc21 | i |
| O=C(CN(Cc1ccc(F)cc1)S(=O)(=O)c1ccccc1)Nc1ccccc1C(F)(F)F | i |
| Cc1ccnc(NCc2cccc3ccccc23)c1 | 3% |

Going on with the list.
| molecule | Mtb growth |
| --- | --- |
| CCOC(=O)c1ccccc1NC(=O)CN(c1cccc(C)c1)S(=O)(=O)c1ccc(C)cc1 | 1% |
| O=C(CSc1nccc(=O)[nH]1)N1CCN(c2ccccc2)CC1 | i |
| CCc1ccccc1NC(=O)C(=O)NCC1CCCCC1 | i |
| Cc1ccccc1OCc1nc2ccccc2n1Cc1ccccc1 | 7% |
| O=C(CCc1ccccc1)N1CCc2ccccc21 | 0% |
| COC(=O)c1ccc(NS(=O)(=O)c2ccc(Cl)c(C(=O)O)c2)cc1 | i |
| Cc1ccccc1CN(c1ccc(C(=O)Nc2ccccc2-c2ccccc2)cc1)S(C)(=O)=O | 3% |
| COc1ccc(/C=C(/C#N)c2nc3c(s2)CC(C)CC3)cc1 (stereo unspecified) | 19% |
| O=C(Nc1nccs1)c1ccc(COc2ccc(F)cc2)o1 | 0% |
| Nc1ccc(-c2ccccc2C(=O)O)cc1 | i |
| OCCN(CCO)c1ncnc2sc3c(c12)CCC3 | i |
| Cc1cccc(C(=O)Nc2ccc(F)c(F)c2)c1[N+](=O)[O-] | i |
| Cc1cc([N+](=O)[O-])c2[nH]c(C(=O)N/N=C/c3ccccn3)c(-c3ccccc3)c2c1 | i |
| Cc1ccc(S(=O)(=O)N(CC(=O)NCc2cccnc2)Cc2cccc(C)c2)cc1 | i |
| Fc1cccc(Cl)c1/C=N/N1CCN(Cc2cccc3ccccc23)CC1 | i |

In a second layout: entries from further up
> Cc1ccccc1OCc1nc2ccccc2n1Cc1ccccc1
  Mtb growth: 7%
> O=C(CCc1ccccc1)N1CCc2ccccc21
  Mtb growth: 0%
> COC(=O)c1ccc(NS(=O)(=O)c2ccc(Cl)c(C(=O)O)c2)cc1
  Mtb growth: i

New compounds follow
| molecule | Mtb growth |
| --- | --- |
| COc1cc(C(=O)Nc2ccc(-c3nc4ccccc4[nH]3)cc2)ccc1OC(C)=O | i |
| N/C(=N\OC(=O)CCC1CCCC1)c1ccccn1 | i |
| Cc1sc2ncn(CC(=O)NCc3ccco3)c(=O)c2c1C | i |
| O=C(Nc1nccs1)c1ccc(-c2ccc(F)cc2)o1 | ? |
| CCn1c(CNC(=O)c2ccc(Cl)c(Cl)c2)nnc1SCC(=O)Nc1ccc(OC)cc1 | i |
| Cc1ccc(S(=O)(=O)NCC(=O)OCc2ccc(Br)cc2)cc1 | i |
| Cc1ccc(S(=O)(=O)N(C)c2c(C)ccc(S(=O)(=O)N3CCN(C=O)CC3)c2C)cc1 | i |
| CCOc1cc(-c2nc(-c3cccnc3)no2)cc(OCC)c1OCC | i |
| Cc1ccc(OCC(O)CN2C(C)CCCC2C)c(C)c1 (stereo unspecified) | 2% |
| CCOc1ccc(C(=S)NCCc2ccccc2)cc1OC | i |
| Cc1ccc(C)c(OCC(=O)Nc2ccc(S(=O)(=O)Nc3onc(C)c3C)cc2)c1C | i |
| Cc1ccc(-c2nn(-c3ccccc3)cc2C(=O)O)cc1 | 3% |
| COc1cc(-c2nc3sc4c(c3c(=O)[nH]2)CCCC4)cc(Cl)c1OS(C)(=O)=O | i |
| CCn1c(SCc2ccc(Cl)c(Cl)c2)nnc1C(C)NC(=O)c1ccccc1Br (stereo unspecified) | i |
| CCc1nnc(NC(=O)c2ccc(NC(=O)CCc3ccccc3)cc2)s1 | i |

Remaining list, next part:
| molecule | Mtb growth |
| --- | --- |
| CCCOc1ccc(C(=O)NC(=S)NC23CC4CC(CC(C4)C2)C3)cc1 | 10% |
| Clc1ccc(OCCCNC2CCCC2)cc1 | i |
| O=C1CC(c2ccccc2)C(=O)N1c1nc2ccccc2s1 (stereo unspecified) | i |
| CCOC(=O)Cc1c(-c2ccccc2)c2cc(Br)ccc2[nH]c1=O | i |
| COc1ccc(N(CC(=O)N2CCCCCC2)S(=O)(=O)c2ccc(C)cc2)cc1Cl | i |
| CCc1nnc(NC(=O)CCN2C(=O)/C(=C/c3ccccc3Cl)SC2=S)s1 | i |
| CCOc1ccc(C(F)(F)F)cc1NS(=O)(=O)c1ccc(NC(C)=O)cc1 | i |
| Cc1cccc(-n2c(CCc3ccccc3)nnc2SCC(=O)c2ccccc2)c1 | 1% |
| COc1ccc(-c2c(C(F)(F)F)oc3c(C)c(O)ccc3c2=O)cc1 | i |
| COc1ccc2c(C)cc(=O)oc2c1OC | i |
| CCc1ccccc1NC(=O)CC(O)(C(=O)OC)C(F)(F)F (stereo unspecified) | i |
| Cc1cc(OCC(=O)O/N=C(\N)c2cccnc2)cc(C)c1Br | 3% |
| Nc1c(C(=O)Nc2nccs2)sc2nc3c(c(-c4cccs4)c12)CCCCC3 | 0% |
| COc1cccc(C(=O)NC(C)Cc2ccccc2)c1 (stereo unspecified) | i |
| O=C(CSc1ncn[nH]1)N(c1ccccc1)c1ccccc1 | i |

Three entries from above, as labelled records.
> Nc1c(C(=O)Nc2nccs2)sc2nc3c(c(-c4cccs4)c12)CCCCC3
  Mtb growth = 0%
> COc1ccc(-c2c(C(F)(F)F)oc3c(C)c(O)ccc3c2=O)cc1
  Mtb growth = i
> COc1cccc(C(=O)NC(C)Cc2ccccc2)c1 (stereo unspecified)
  Mtb growth = i

The results go on.
Compound | Mtb growth
O=C1N=C(N2CCCCC2)S/C1=C\c1ccc(-c2cc(Cl)ccc2Cl)o1 | i
CCOC(=O)C1=CN(c2ccc(OCC)cc2)C=C(C(=O)OCC)C1c1ccsc1 | i
COc1ccc(C(=O)O/N=C(\N)c2ccncc2)cc1 | i
CCC(C)c1ccc(O)c(NC(=S)NC(=O)COc2cccc(C)c2)c1 (stereo unspecified) | 26%
CC(C)CC(=O)Nc1ccc(Oc2ccc3c(c2)C(=O)NC3=O)cc1 | i
Cc1ccc(C(=O)COc2cccc(NC(=O)c3ccc(Br)cc3)c2)cc1C | i
NC(=O)c1cc(Cc2ccccc2)sc1NC(=O)c1cccnc1 | 19%
CC(Oc1cccc2cccnc12)C(=O)N/N=C/c1cccc2cccnc12 (stereo unspecified) | i
Cc1cccc(N2CCN(S(=O)(=O)c3cc(Cl)ccc3Cl)CC2)c1C | i
Fc1ccc(CN2CCN(c3ncnc4scc(-c5ccc(F)cc5)c34)CC2)cc1 | ?
CCCCOC(=O)Nc1ccc(S(=O)(=O)Nc2cc(C)nc(C)n2)cc1 | ?
CS(=O)(=O)Nc1ccc(C(F)(F)F)cc1 | i
COC(=O)c1c(C)n(Cc2ccc3c(c2)OCO3)c2ccc(O)cc12 | 4%
Fc1ccc(NC(=S)Nc2cccc(F)c2)cc1 | 15%
Cc1cc(NS(=O)(=O)c2ccc(NC(=O)c3ccc(Br)cc3)cc2)no1 | i
CC(N)Cc1c[nH]c2ccc(Cl)cc12 (stereo unspecified) | i
CCOC(=O)N1CC(C)N(C(=O)OCC)CC1C (stereo unspecified) | i
CC1CCN(CCC(=O)Nc2cccc(F)c2)CC1 | i
Cc1cccc(-c2nnn(CC(=O)O)n2)c1 | i
CC(=O)c1cccc(NS(=O)(=O)c2ccc(F)c(Cl)c2)c1 | i
CS(=O)(=O)N(CC(=O)N1CCN(Cc2ccccc2)CC1)c1ccccc1Cl | i
CCC(C)NCCOc1ccc(C)cc1Cl (stereo unspecified) | i
Cc1nn(-c2nc3ccccc3s2)c(N)c1-c1ccccc1 | 0%
CC1(C)CC2CC(C)(CN2C(=O)c2ccccc2NC(=O)C(C)(C)C)C1 (stereo unspecified) | i
O=C(CSc1nc(-c2cccs2)cc(C(F)(F)F)n1)Nc1ccc2c(c1)OCO2 | i
CCOc1cc(C2NC(=O)NC(C)=C2C(C)=O)c(Br)cc1OCc1ccccc1 (stereo unspecified) | i
O=C(CSCc1ccc(Br)cc1)N1CCN(c2ccccc2F)CC1 | 5%
COc1ccc(NC(=O)COc2cc(C)c(Cl)c(C)c2)c(OC)c1 | i
COc1ccc(NC(=O)c2ccccc2NC(=O)Cc2cccs2)cc1 | i
O=S(=O)(Nc1cccc(Cl)c1Cl)c1ccc(NS(=O)(=O)c2cccs2)cc1 | i

Continuation:
Compound | Mtb growth
O=C(NCCOCc1ccccc1Cl)c1ncn[nH]1 | 6%
COc1cc(NC(=O)CS(=O)(=O)c2ccccc2)cc(OC)c1OC | i
O=C1C2C3CC(c4ccccc4)C(C3)C2C(=O)N1c1nccs1 (stereo unspecified) | i
O=C(CSc1n[nH]c(-c2ccncc2)n1)Nc1sc2c(c1C(=O)Nc1ccccc1)CCCC2 | i
CCc1cccc(C)c1NC(=O)COc1ccc2ccccc2c1 | i
COc1ccc(-c2nc3ccccc3s2)cc1NC(C)=O | 2%
CCCCc1nc(SCC(=O)Nc2ccc3ccccc3c2)n[nH]1 | 11%
Cc1ccc(OCC(=O)Nc2cc(Cl)ccc2O)cc1 | 4%
O=C(NC(c1ccccc1)c1ccccc1F)NC(c1ccccc1)c1ccccc1F (stereo unspecified) | 10%
CCNC(=S)N1CCN=C1Nc1nc(C)cc(C)n1 | i
Cc1ccc(NC(=O)C(=O)NCCN2CCN(C(=O)c3ccc(C(C)(C)C)cc3)CC2)cc1 | ?
Cc1ccc(-n2ncc(C#N)c2/N=C/N2CCOCC2)cc1 | i
COc1ccc(-c2sc(C(=O)O)c(C)c2C#N)cc1 | i
COc1ccc(C2CC(=O)Nc3cc4c(cc32)OCCO4)cc1OC (stereo unspecified) | 3%
Cc1cccc(NC(=S)N2CCN(c3ccc(F)cc3)CC2)c1C | i
COc1ccc(OCCCC(=O)Nc2c(C)cc(C)cc2Cl)cc1 | 4%
CN(C)S(=O)(=O)c1cccc(N)c1 | i
CC(C)(Oc1ccc(Cl)cc1)C(=O)Nc1ccc2oc(=O)ccc2c1 | i
COc1ccc(/C=C/c2ncc3ccccn23)cc1 | i

6 structures from above, sorted by molar mass, largest number first.
Compound | Mtb growth
COc1cc(-c2nc3sc4c(c3c(=O)[nH]2)CCCC4)cc(Cl)c1OS(C)(=O)=O | i
O=C(Nc1ccc2c(c1)ncn2-c1ccccc1)c1ccc(Cl)cc1 | i
Cc1cccc(NC(=S)N2CCN(c3ccc(F)cc3)CC2)c1C | i
O=C1CC(c2ccccc2)C(=O)N1c1nc2ccccc2s1 (stereo unspecified) | i
Fc1ccc(NC(=S)Nc2cccc(F)c2)cc1 | 15%
CN(C)S(=O)(=O)c1cccc(N)c1 | i

Some of the compounds tested (hit frequency here may not be typical).
